Screening data as filed in PubChem.
KSHV LANA nucl: LANA-nucleosome interaction inhibition. 51,000 tested, 0.3% active. z-score (no concentration beside the values). AID 720717. FITC-LANA1-23 / chicken nucleosome fluorescence polarization; hits give low values;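 active = both repeat wells score below -2 in polarization z-score versus plate sample wells, excluding overly bright wells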;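 note: 100 nL library stock added to about 30 µL; numbers are from one replicate; some results filed as inactive read as strong as hits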
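Assay system: FITC-LANA peptide and chicken nucleosomes; input: 240 nM purified chicken nucleosomes (480 nM peptide binding sites), final; also added: 50 nM FITC-LANA1-23 probe; medium: TEN-BT buffer, pH 7.5; doses: pin-transferred compound, 100 nL; times: 10–45 min, room temperature; technique: fluorescence polarization; replication: duplicates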
Ab BasE inh: BasE siderophore biosynthesis inhibition; purified BasE, fluorescence polarization binding displacement; inhibition, % (test concentration not listed); 84,000 tested, 0.1% active; AID 485350;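 active = both replicates above 25% with normal brightness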;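 note: 0% = negative plate control signal and 100% = positive plate control signal; stock transfer was 100 nL into about 30 µL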
An asterisk follows results filed as active; . = not tested or not shown. A portion of the library, so the mix of outcomes need not match the whole.

SMILES	KSHV LANA nucl	Ab BasE inh
N#Cc1ccc(/C=N/n2c(-c3ccco3)csc2=Nc2ccccc2)cc1	.	6.0
CS(=O)(=O)N1CCc2cc(C(=O)Cn3nc(C(=O)O)c4ccccc4c3=O)ccc21	.	-0.1
Cc1oc(-c2ccccc2)nc1C(=O)N1CCN(c2ccccc2)CC1	.	-0.8
Cn1c(-c2c(N)n(Cc3ccccc3)c3nc(C#N)c(C#N)nc23)nc2ccccc21	.	0.3
COc1ccc(Cc2nnc(Nc3ccc(Cl)cc3Cl)o2)cc1OC	-0.4	1.1
O=C(c1ccc(Cl)c(Cl)c1)c1nn2c(nc(=O)c3ccccc32)s1	.	3.5
Cc1ccc2oc(=O)c3cnn(CC(=O)Nc4cc(C)on4)c3c2c1	-0.26	1.4
CNc1nnc(-c2ccccc2)s1	0.12	-1.2
CCn1nc(C)c(Br)c1-c1nc(-c2ccccc2)no1	.	-2.1
O=C1Nc2ccccc2OC1CC(=O)N1CCN(Cc2ccc3c(c2)OCO3)CC1 (stereo not given)	0.55	-0.5
Cc1[nH]c(=S)[nH]c(=O)c1Oc1ccccc1	.	2.3
O=C(O)CN1C(=O)S/C(=C\c2ccccc2)C1=O	0.33	0.3
Sc1cccc2cccnc12	.	-1.4
Cc1ccc2ccc(C3C(=O)c4cccnc4C3=O)nc2c1 (stereo not given)	-0.71	.
O=C(CSc1ncc(CO)n1Cc1ccc(Cl)cc1)Nc1ccc2c(c1)OCCO2	-1.2	3.4
Cc1ccc2nc(SC(C)C(=O)c3c(N)n(C)c(=O)n(C)c3=O)[nH]c2c1 (stereo not given)	.	-1.2
Oc1cc2c(cc1C(c1ccc(C(F)(F)F)cc1)N1CCN(c3ccccc3)CC1)OCO2 (stereo not given)	.	2.4
C=C(C)CC1C=CCC(CC(=C)C)N1 (stereo not given)	0.25	5.8
CS(=O)(=O)N(CC(N)=O)C1CCCCC1	-0.14	1.3
CCOC(=O)c1c(NC(=O)c2ccn(CC)n2)sc2c1CCC2	.	3.1
COc1cc(OC)nc(NCC(NC(=O)c2ccccc2)C(N)=O)n1 (stereo not given)	.	-0.1
O=C(CN1C(=O)CCC1=O)NC(=S)Nc1cccc(-c2nc3ccccc3o2)c1	-1.3	-2.8
CCC(=O)N1c2ccccc2NC2=C(C(=O)CC(c3ccccc3)C2)C1c1ccccc1 (stereo not given)	.	-9.2
Cc1cc(NC(=O)C2CC(=O)N(c3ccccc3C)C2)no1 (stereo not given)	1.3	-2.2
CCOC(=O)c1c(C)n(-c2ccc(OC)cc2)c2ccc(OC)cc12	.	-1.5
S=C1NCCc2ccccc21	-0.2	-1.0
S=C(Nc1ccccc1)N1CCC(c2ccccc2)=N1	.	3.3
CC(=O)N1/C(=C/c2ccc(N(C)C)cc2)C(=O)c2ccccc21	.	-5.9
COc1ccc(C(=O)c2cnc3ccccn23)cc1Cl	0.71	-1.6
O=C(CCN1CCN(C(c2ccccc2)c2ccccc2)CC1)N/N=C/c1cccnc1	-1.8	2.0

Rewritten with each value named: part of the list above
> O=C(CN1C(=O)CCC1=O)NC(=S)Nc1cccc(-c2nc3ccccc3o2)c1
  KSHV LANA nucl: -1.3
  Ab BasE inh: -2.8
> COc1ccc(C(=O)c2cnc3ccccn23)cc1Cl
  KSHV LANA nucl: 0.71
  Ab BasE inh: -1.6
> S=C(Nc1ccccc1)N1CCC(c2ccccc2)=N1
  KSHV LANA nucl: .
  Ab BasE inh: 3.3

(further entries)
SMILES	KSHV LANA nucl	Ab BasE inh
CCCN(Cc1nnc(-c2ccco2)o1)C(=O)Cc1n[nH]c(=O)c2ccccc12	.	14
CC(C)c1ccccc1NC(=O)CC(C)(C)C	-0.19	1.8
O=C(Nc1nc2ccccc2[nH]1)C1CCCN(C(=O)c2ccc(Cl)cc2)C1 (stereo not given)	.	-0.3
O=C(NCc1ccc2c(c1)OCO2)C1CCN(c2ncccn2)CC1	2.4	-0.5
COC(=O)c1ccc(COC(=O)c2cc(-c3ccco3)nc3ccccc23)cc1	.	1.3
COC(=O)C1=C(C)NC(C)=C(C(=O)OC)C1c1cn(-c2ccccc2)nc1-c1ccco1	0.36	4.7
CNC(=S)N(Cc1ccc2c(c1)OCO2)C1CCCC1	.	-4.4
CCc1ccc(N2C(=O)C3C4CCCC4=C4CCCC4C3C2=O)cc1 (stereo not given)	0.18	0.9
Cc1ccc(O)c(NC(=O)C2CC(c3ccc(Cl)cc3)=NO2)c1 (stereo not given)	0.26	2.1
CC1(C)C(=O)C2(C(=O)NCc3ccccc3)CCC1C2 (stereo not given)	0.29	1.4
N=c1nc(N)nc2n1NC(c1ccc(F)cc1)=CS2	-0.98	1.9
Cc1cc(NC(=O)CN2C(=O)S/C(=C\c3ccccc3)C2=O)no1	1.2	2.3
CN(C)C(=O)c1ccc(N(C)S(=O)(=O)c2ccccc2)cc1	-0.88	2.6
CCOC(=O)c1cc2n(n1)C(C(F)(F)C(F)(F)F)CC(C)N2 (stereo not given)	2.7	-4.0
COCC(C)n1c(COc2ccccc2F)nnc1SCC(C)C (stereo not given)	.	-0.9
COCc1cc(=O)[nH]c(/N=C(\N)Nc2ccccc2)n1	.	0.7
CCCCC(CC)CNc1ncnc2c1oc1ccccc12 (stereo not given)	.	-0.2
CN(C)S(=O)(=O)c1ccc(SCC(=O)N2CC(=O)Nc3ccccc32)nc1	.	-2.4
CCNC(=O)c1cc2sccc2n1Cc1ccccc1	-1.2	0.0
Cc1cc(C(=O)OCc2cc(=O)oc3cc4c(cc23)CCC4)c(C)o1	.	-0.6
O=C1C=CC(=NSc2ccccc2)C=C1	.	2.2
CCC1CCCCN1C(=O)COC(=O)/C=C/c1cc(OC)c(OC)c(OC)c1 (stereo not given)	.	-1.0
CCCc1nc2nc(C)c(NS(=O)(=O)Cc3ccccc3)c(=O)n2[nH]1	-0.27	2.1
CC1CC(CC(C)C(=O)NC(=S)Nc2ccc(S(N)(=O)=O)cc2)C(=O)O1 (stereo not given)	1.1	-0.4
COc1ccc2ncc(S(=O)(=O)c3ccccc3)c(N3CCC4(CC3)OCCO4)c2c1	-0.63	-0.7
CC(C)CCN1COc2ccc3c4c(oc3c2C1)C(=O)c1ccccc1C4=O	.	9.7
CCn1c(SCC(=O)N=Nc2c(O)[nH]c3c(C)cc(C)cc23)nnc1-c1ccc(C)cc1	.	1.5
Nc1ccc2c(c1)C(=O)N(CCCCN1C(=O)c3ccc(N)cc3C1=O)C2=O	-0.45	1.6
CC(=O)Nc1ccc2oc(-c3ccccc3)nc2c1	-0.088	-4.7
CCOC(=O)N1CCC(NC(=O)c2nccnc2C(=O)Nc2ccc(C)cc2)CC1	-0.035	0.1

Next section:
Results follow in this order: KSHV LANA nucl | Ab BasE inh
- CCc1cc2c(=O)c(-c3nc(C)cs3)c(N)oc2c(CN2CCCCC2)c1O
→ . | 2.1
- CCCc1ccc(S(=O)(=O)NCC2CCCN2CC)cc1 (stereo not given)
→ . | -0.7
- O=C(NCc1ccco1)C1CC1(c1ccccc1)c1ccccc1 (stereo not given)
→ -0.72 | 2.9
- COc1ccc2cc3cc(C(=O)NCc4cc(Br)ccc4OC)oc3nc2c1
→ -1.1 | 1.5
- CC1CCc2c(sc3c2C2=NS(=O)(=O)CCN2C=N3)C1 (stereo not given)
→ . | 2.8
- COC(=O)c1ccc(COC(=O)c2csc3c2CCCC3)o1
→ . | -0.5
- CCOC(=O)OC(C)OC(=O)[C@@H]1N2C(=O)[C@@H](NC(=O)[C@H](N)c3ccccc3)[C@H]2SC1(C)C (stereo not given in full)
→ -0.17 | -0.9
- S=c1nccc(-c2cc(-c3ccccc3)no2)[nH]1
→ 1.7 | -10
- Cc1ccnc(SCC(=O)Nc2ccccc2)n1
→ 1.1 | 11
- CC(C)COC(=O)N1CCCC1C(=O)O (stereo not given)
→ 1.7 | 3.8
- COc1ccc(C2CC(=O)NC(NC(=S)NC(C)C)=N2)cc1 (stereo not given)
→ -0.54 | -1.8
- C=C(C)CNC(=S)Nc1cc(Cl)ccc1Sc1nncn1C
→ . | -1.1
- COc1ccccc1C(=O)Nc1cccc(-c2csc(-c3ccccc3)n2)c1
→ . | 0.2
- Cn1c2ccccc2c2c(C(=O)N3CCN(c4ccccc4)CC3)cn(C3CCCCC3)c(=O)c21
→ -0.48 | 0.6
- CC(=O)Nc1sc(=Nc2ccc(C)c(C)c2)n(C(C)=O)c1-c1ccc2c(c1)OCO2
→ . | 0.1
- CC(C)(C)c1cc(Cc2ccc(O)c(O)c2)cc(C(C)(C)C)c1O
→ 0.61 | -0.9
- COc1cccc(NC(C)C(=O)Nc2ccc(NC(C)=O)cc2)c1 (stereo not given)
→ . | -0.1
- CC[N+](C)(CC)CCOC(=O)C1c2ccccc2Oc2ccccc21
→ 0.45 | -1.3
- CCCCn1c(=O)[nH]c(=O)c2c1nc(COC(=O)C1(Cc3nc4ccccc4s3)CCCC1)n2C
→ . | 0.1
- COC(=O)c1cc(NC2c3ccccc3C(=O)N2Cc2ccco2)cc(C(=O)OC)c1 (stereo not given)
→ 0.56 | -0.8
- CCn1c(O)c(C=Nc2ccc(OC)cc2)c(=O)n(CC)c1=S
→ . | -7.1
- COC(=O)c1cc(-c2cc(OC)c(OC)c(OC)c2)no1
→ -1.4 | -0.9
- FC(F)(F)c1nc2ccc(Cl)cc2[nH]1
→ . | 3.4
- CC(C)=CCCC(C)CN1CCN(c2ccc(Cl)cc2)CC1 (stereo not given)
→ -1.2 | 2.5
- CC1(C)CC(N2NC(=O)C(Cc3ccccc3)C2=O)CCS1 (stereo not given)
→ . | 1.8
- O=C(O)CSc1ncc(C(F)(F)F)cc1Cl
→ 0.24 | .
- Cc1nc(N(C)C2CCCCC2)c2nnn(Cc3ccc(F)cc3)c2n1
→ -0.56 | 2.5
- Cc1cc2c([nH]c3ccccc32)c(C)n1
→ 0.019 | -4.4
- N=c1n(CCN2CCCCC2)c2ccccc2n1CC(O)c1ccc2c(c1)OCO2 (stereo not given)
→ -0.056 | -3.8
- O=C(O)CNC(=O)CCN1C(=O)c2ccccc2C1=O
→ 0.18 | 1.9
- CCCN(CC(=O)Nc1cc(C)on1)CC(=O)Nc1ccccc1C
→ . | 0.4
- O=C(COc1ccc(C2=Nc3ccccc3NC(c3ccccc3)C2)cc1)Nc1ccccc1 (stereo not given)
→ . | -3.3
- N#CC1=C(N)C(C#N)(C#N)C(c2cccs2)C2CN(C(=O)OCc3ccccc3)CC=C12 (stereo not given)
→ 0.39 | -1.1
- COc1cccc(C(=O)Nc2c(C)n[nH]c2C)c1
→ 1.1 | 0.9
- Cc1ccnn1CCN
→ 0.65 | 2.7
- CCOc1ccc(S(=O)(=O)N2CCc3ccccc3C2CC(=O)Nc2nnc(C)s2)cc1 (stereo not given)
→ . | 19
- CC1(C)CC(=O)C2=C(C1)Nc1ccccc1N(C(=S)Nc1ccccc1)C2c1ccco1 (stereo not given)
→ 0.087 | 1.6
- O=C(Nc1cccnc1)c1cnn(-c2ccccc2)c1-n1cccc1
→ -0.92 | 2.9
- O=C(/C=C/c1c[nH]c2ccccc12)N1CCCCC1
→ . | 2.4
- O=C(NN=C1CCCCC1)c1cccc(N2CCCC2=O)c1
→ -1.2 | 0.0
- CC(C)(C)NC(=O)NC(=O)CN1CCc2ccccc21
→ . | -1.0
- CCOc1ccc(-n2cc(C(=O)NCCOC)c3cc(OC)c(OC)cc3c2=O)cc1
→ -0.67 | -0.6
- CCOc1ccccc1NC(=O)CNc1cc(F)ccc1C
→ . | 2.3
- COC(=O)CC(c1ccc(C#N)cc1)n1c(C)ccc1C (stereo not given)
→ -0.99 | .
- O=C(NCc1ccccc1)C1CCC(C(=O)NCc2ccccc2)N1 (stereo not given)
→ 1.2 | -0.5
- C=CCN1C(=O)CS/C1=C(\C#N)S(=O)(=O)c1ccc(C)cc1
→ -0.37 | -3.2
- NC(=O)COC(=O)c1sc2cc(F)ccc2c1Cl
→ . | 0.8
- CCOc1ccccc1CCC(=O)O
→ . | 2.3
- Cc1cc(S(=O)(=O)N2CCCC2)ccc1-n1cnnn1
→ 2.4 | -3.9
- COc1cccc(NC(=O)c2c(OC)cccc2OC)c1
→ 0.23 | 0.6
- COc1ccc(-c2noc(=O)n2CC(=O)Nc2ccccc2C)cc1
→ 0.86 | 5.0
- CC1=Nc2cc(C(=O)NCc3ccco3)ccc2Sc2ccc(Cl)cc21
→ -0.044 | 0.8

Not a retest: entries from further up.
Results follow in this order: KSHV LANA nucl | Ab BasE inh
- O=C(NN=C1CCCCC1)c1cccc(N2CCCC2=O)c1
→ -1.2 | 0.0
- CC(C)(C)NC(=O)NC(=O)CN1CCc2ccccc21
→ . | -1.0
- CCOc1ccc(-n2cc(C(=O)NCCOC)c3cc(OC)c(OC)cc3c2=O)cc1
→ -0.67 | -0.6
- CCOc1ccccc1NC(=O)CNc1cc(F)ccc1C
→ . | 2.3
- COC(=O)CC(c1ccc(C#N)cc1)n1c(C)ccc1C (stereo not given)
→ -0.99 | .
- O=C(NCc1ccccc1)C1CCC(C(=O)NCc2ccccc2)N1 (stereo not given)
→ 1.2 | -0.5
